# NS1 inh: blocks influenza NS1 protein function; S. cerevisiae slowed by influenza A NS1, growth recovery by OD600; Potency, µM (titrated, usually from 46.1 µM), for the others: at the top dose activity, positive = more growth; actives 0.4% (n = 270,000); AID 2326; active means well fitted rising curve with a large enough effect; inconclusive means small, poorly fitted or top-dose-only effect; inactive means no such curve, though single readings can be large or run the other way; also: nearly all actives have a fitted effect of over 50% in size
#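 S. cerevisiae expressing influenza A NS1, grown in glucose, washed, then diluted 1:100 into pH 6.0 -URA galactose medium with 23 nl compound. Growth recovery read as OD600; NS1-free strain serves as control.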
# Cruzain inh Det: cruzain (T. cruzi) inhibition with detergent; actives 0.43% (n = 200,000); purified cruzain, Z-FR-AMC fluorescence, 0.01% Triton; Potency, µM, for the others: max response, negative = inhibition, actives largely listed as inhibitors; P25779;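 also: plate controls were neutral wells for no effect and buffer without enzyme for full effect; nearly all actives have a fitted effect of over 40% in size; top concentration of the series not given in the record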
# Target sequence (P25779 123-467 limits assumed): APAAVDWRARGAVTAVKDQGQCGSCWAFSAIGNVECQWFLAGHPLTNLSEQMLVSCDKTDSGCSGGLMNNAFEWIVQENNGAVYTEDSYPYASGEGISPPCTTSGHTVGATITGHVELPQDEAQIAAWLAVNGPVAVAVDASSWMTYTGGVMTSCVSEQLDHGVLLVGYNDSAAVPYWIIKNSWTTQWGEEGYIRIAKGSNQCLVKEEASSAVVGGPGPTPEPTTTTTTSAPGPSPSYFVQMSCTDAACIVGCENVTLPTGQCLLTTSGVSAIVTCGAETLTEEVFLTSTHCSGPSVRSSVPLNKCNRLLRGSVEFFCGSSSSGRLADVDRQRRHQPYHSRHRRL
#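 In this qHTS format, compounds are incubated with 1.5 nM cruzain for 15 min at room temperature before 2 uM Z-FR-AMC is added. Release of AMC is followed at 360/450 nm, and progress is taken as the 60 s fluorescence difference.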
# Marburg entry inh: blocks Marburg virus binding to or entry into cells | Marburg virus pseudotyped entry inhibition, cell reporter; control for the full effect not named in the record; about a third of the inactives were read at about 46 µM | actives 1.8% (n = 300,000) | Potency, µM (titrated, usually from 37.8 µM), inactives show at the highest dose activity change, negative = inhibition, hits mostly inhibitors; active = well fitted inhibition curve with a large enough effect; inconclusive = small, poorly fitted or top-dose-only effect, or effect the other way; inactive = flat fitted curve, though single readings scatter; tested in HEK293 cells; about a fifth of its hits are not listed in these tables; also: % is scaled to controls: 0 for no effect and ±100 for the full control effect; luciferase read-out
# SARS PLP yeast: inhibitors of SARS-CoV papain-like protease in yeast. AID 485353. Potency, µM (titrated, usually from 32.9 µM), for the others: at the highest dose activity, positive = growth rescue. actives 0.19% (n = 330,000). S. cerevisiae expressing SARS-CoV PLpro, growth rescue; control for the full effect not named in the record; active means well fitted rising curve with a large enough effect; inconclusive means small, poorly fitted or top-dose-only effect; inactive means no such curve, though single readings can be large or run the other way; also: 0% is about no effect; nearly all actives have a fitted effect of over 55% in size; growth read by luminescence after 48 h
# StopGo reporter: lowers the luciferase signal of an FMDV 2A StopGo reporter; human cells with a luciferase reporter of 2A StopGo recoding; control for the full effect not named in the record; actives 1.2% (n = 410,000); Potency, µM (top dose mostly 57.9 µM), for the others: top-dose signal change, negative = less light; active = well fitted falling curve with a large enough effect; inconclusive = small, poorly fitted or top-dose-only effect; inactive = no such curve, though single readings can be large or run the other way; tested in HEK293T cells; also: % is scaled to controls: 0 for no effect and ±100 for the full control effect; nearly all actives have a fitted effect of over 45% in size; luciferase light after 4 h
# RE007 growth inh: less growth of the S. pombe RE007 Vpr strain; S. pombe RE007 Vpr strain, BacTiter-Glo ATP luminescence, 24 h; control for the full effect not named in the record; Potency, µM (doses to about 92.2 µM), inactives show at the top dose activity change, negative = less growth; actives 0.21% (n = 360,000); active = well fitted falling curve with a large enough effect; inconclusive = small, poorly fitted or top-dose-only effect; inactive = no such curve, though single readings can be large or run the other way;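 also: % is scaled to controls: 0 for no effect and ±100 for the full control effect; nearly all actives have a fitted effect of over 50% in size; the assay follows cell death caused by Vpr and the record does not say whether a fall means rescue or toxicity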
#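 Fission yeast strain RE007, carrying one chromosomally integrated HIV-1 vpr copy, was seeded at OD 0.01 in PMG+AL medium with 23 nL pinned compound. After 24 h at 30 °C and 99% humidity, viability was read by BacTiter-Glo luminescence.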
# Lassa entry inh: Lassa virus entry inhibition; AID 540256; actives 1.2% (n = 300,000); Lassa virus pseudotype entry inhibition, cell reporter; control for the full effect not named in the record; Potency, µM (titrated, usually from 37.9 µM), without a hit: top-dose activity change, negative = inhibition, hits mostly inhibitors; active means well fitted inhibition curve with a large enough effect; inconclusive means small, poorly fitted or top-dose-only effect, or effect the other way; inactive means flat fitted curve, though single readings scatter; tested in HEK293 cells; also: % is scaled to controls: 0 for no effect and ±100 for the full control effect; nearly all actives have a fitted effect of over 50% in size; luciferase read-out
# Cruzain noTriton: cruzain (T. cruzi) inhibition without detergent. P25779. purified cruzain, Z-FR-AMC fluorescence, no detergent. Potency, µM, for the others: max response, negative = inhibition, hits mostly inhibitors. actives 2.3% (n = 200,000);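 also: plate controls were enzyme without inhibitor for no effect and buffer without enzyme for full effect; nearly all actives have a fitted effect of over 40% in size; top concentration of the series not given in the record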
#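 Purified cruzain at 1.5 nM, pre-incubated 15 min with compound at room temperature in 100 mM sodium acetate pH 5.5, 5 mM DTT, 0.00005% Triton X-100. Reaction started with 2 uM Z-FR-AMC; AMC fluorescence increase over 60 s gives rate.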
# * = called active by the depositor; ? = inconclusive; . = no result given; & = joins results of further samples; [ ] = another dose, or the depositor's remark. Unless noted, calls follow the shape of the dose curve; as a rule, active = well fitted curve in the direction sought with a large enough effect; inconclusive = small, poorly fitted or top-dose-only effect, or another doubt; inactive = no such curve, though single readings can be large; an effect the other way counts as inactive or inconclusive. Potency is read from the fitted curve at half-maximal effect. An unsorted share of the library; 4.5% or so of the library scored in one or more.
SMILES,NS1 inh,Cruzain inh Det,Marburg entry inh,SARS PLP yeast,StopGo reporter,RE007 growth inh,Lassa entry inh,Cruzain noTriton
COc1ccc(C=Nc2cccc3c(=O)[nH][nH]c(=O)c23)c2ccccc12,3%,-10%,-17%,-3%,46%[activator],0%,-15%,32µM*
CCOC(=O)Cc1c(Sc2ccccc2)c2cc(C)ccc2n1C,-9%,-6.7%,?,-26%,0%,-6%,-1%,-13%
CC(=O)NC12CC3CC(CC(CC(=O)O)(C3)C1)C2,-2%,3.5%,6%,-2%,-14%,11%,6%,6%
Cc1nn(-c2ccc(F)cc2)c(-n2cccc2)c1C(=O)N1CCCCC1C (centres undefined),.,-3.7%,.,.,-12%,.,9%[46.1 µM],?
CCn1cc(C(=O)N2CCN(c3ccc(F)cc3)CC2)c2cc(OC)c(OC)cc2c1=O,.,.,-20%[46.1 µM],1%,-8%,29%,-7%,.
O=C1C2C3c4ccccc4C(c4ccccc43)C2C(=O)N1Cc1cccnc1 (centres undefined),0%,3.1%,-5%,-1%,-26%,1%,6%,5%
COc1ccc(NC(=O)c2ccc(COc3ccc(C)cc3)o2)cc1,-9%,.,.,0%,17%,2%,.,.
CCOc1ccc(NCc2cccn2-c2nnc(N3CCC(C(=O)NCCOC)CC3)s2)cc1,.,-2.0%,?,.,-22%,.,.,?
O=S1(=O)c2ccccc2N(Cc2ccc(Cl)cc2)c2ccccc21,.,-1.8%,.,.,0%,.,6%[46.1 µM],21%
CN(C)C(=O)COC(=O)c1ccccc1OCC(=O)Nc1ccc(SC(F)F)cc1,6%,-6.7%,?,4%,-19%,-4%,-1%,?
c1cc2c(cc1-c1cnc3n1CCC3)OCCO2,-2%,-0.8%,17%,-1%,.,0%,17%,-8%
O=C(COc1ccc(Cl)cc1)Nc1ccccc1N1CCOCC1,0%,-7.3%,2%,26%,.,.,.,3%
CCS(=O)(=O)N1CCN(c2ccccn2)CC1,-2%,-9.9%,5%,-15%,-7%,-2%,-4%,-1%
COc1ccc(N2C(=O)C3CCCN3C2c2ccccc2F)cc1 (centres undefined),1%,0.9%,.,10%,-2%,-1%,.,-5%
Cc1cccnc1NC(=O)Nc1cccc(C(F)(F)F)c1,0%,5.2%,?,1%,-2%,-14%,3%,?
Cn1c(CNC(=O)c2ccco2)nnc1SCC(=O)Nc1cccc(F)c1,.,.,-3%[46.1 µM],-2%,-7%,-3%,5%,.
O=S1(=O)N=C(N(CCO)/N=C/C=C/c2ccccc2)c2ccccc21,-8%,-7.9%,?,-6%,?,-1%,-13%,-10%
CN(C)CCCN(C(=O)COc1ccccc1)c1nc2ccc(Cl)cc2s1,.,.,?,-3%,-15%,4%,-20%,.
COc1ccc(N2CCN(C3CCCN(Cc4ccc(F)cc4Cl)C3)CC2)cc1 (centres undefined),-17%,.,.,0%,?,-5%,.,.
Cc1cc(/C=C2/SC(=S)N(c3cccc(Cl)c3)C2=O)c(C)n1-c1cccnc1,.,.,?,.,?,-8%,?,.

# Complete entries as entered above:
# CCOC(=O)Cc1c(Sc2ccccc2)c2cc(C)ccc2n1C as listed: NS1 inh: -9%; Cruzain inh Det: -6.7%; Marburg entry inh: ?; SARS PLP yeast: -26%; StopGo reporter: 0%; RE007 growth inh: -6%; Lassa entry inh: -1%; Cruzain noTriton: -13%
# O=S1(=O)c2ccccc2N(Cc2ccc(Cl)cc2)c2ccccc21 as listed: NS1 inh: .; Cruzain inh Det: -1.8%; Marburg entry inh: .; SARS PLP yeast: .; StopGo reporter: 0%; RE007 growth inh: .; Lassa entry inh: 6%[46.1 µM]; Cruzain noTriton: 21%

# Later entries
SMILES,NS1 inh,Cruzain inh Det,Marburg entry inh,SARS PLP yeast,StopGo reporter,RE007 growth inh,Lassa entry inh,Cruzain noTriton
Cc1nc2c(-c3ccc(F)cc3)c(C)nn2c(N2CCOCC2)c1C,-31%,-3.1%,?,3%,-30%,-11%,-9%,?
Cc1nn2c(NC(C)C)c3c(nc2c1-c1ccccc1)CCC3,-8%,.,?,-1%,-24%,-26%,?,.
CCCN(Cc1cc2cc(OC)ccc2[nH]c1=O)C(=O)c1ccncc1,7%,-0.1%,?,6%,-8%,14%,?,-7%
Cc1ccc(-c2cc(C(=O)O)n(-c3ccc(S(N)(=O)=O)cc3)n2)cc1,3%,.,.,0%,-13%,9%,.,.
CC(C)c1nnc(NC(=O)C2CCCN2C(=O)Nc2cccc(Cl)c2)s1 (centres undefined),9%,.,-8%[46.1 µM],1%,35%[activator],-18%,0%[46.1 µM],.
O=C(Nc1cn(-c2ccccc2)nc1-c1ccccc1)c1ccccc1,-4%,-4.2%,9%,1%,-15%,-8%,-5%,?
CC1CCN(S(=O)(=O)c2ccc(NC(=O)CN3CCCC3)cc2)CC1,5%,.,-4%[46.1 µM],-2%,4%,0%,.,.
C=CCOC(=O)C1=C[C@H](c2cn(C(C)=O)c3ccccc23)[C@@H](CCCO)[C@H](OCC)O1,2%,.,.,0%,-13%,2%,.,.
CC(C)OC(=O)C1C(=O)CC(C)(O)C(C(=O)OC(C)C)C1c1cccnc1 (centres undefined),-2%,2.0%,18%,-10%,2%,41%,6%,11%
COc1ccc(/C=N/OC/C(O)=C(\C#N)c2nc3ccccc3[nH]2)cc1OC,6%,-5.3%,?,1%,-18%,5%,15%,-6%
CN1CCN(CCCNC(=S)Nc2ccc(F)c(Cl)c2)CC1,0%,.,-2%[46.1 µM],1%,-8%,-14%,-8%,.
COc1ccc(Cl)cc1NC(=O)COC(=O)c1cc(NS(=O)(=O)c2cccs2)ccc1O,20%,-7.7%,-22%,0%,?,-5%,-1%,?
N#CC1=C(N)NC(SCC(=O)c2ccc(Br)cc2)=C(C#N)C12CCCCC2,-7%,-15%,?,-82%,?,9%,?,-1%
Cc1c(C(=O)N2CCN(c3ccc(F)cc3)CC2)sc2nc3n(c(=O)c12)CCC3,-3%,-3.4%,-8%&-8%[46.1 µM],-17%,-20%&-25%,10%,-20%&2%[46.1 µM],6%
COc1ccc(C(=O)NNC(=O)CN2CCC(n3nnc4cc(C)ccc43)CC2)cc1,10%,0.8%,-3%,6%,-3%,-15%,-3%,16%
Cc1ccc(N2C(=O)NC(=O)/C(=C\c3cnc(-c4ccccc4)nc3)C2=O)cc1,9%,-0.3%,?,?,-3%,?,6%,-10%
O=C(O)c1ccc(CN2C(=O)c3ccc(C(=O)O)cc3C2=O)cc1,-1%,.,.,2%,-7%,-10%,.,.
CC(C)CCn1nnnc1CN1CCN(c2ccc(F)cc2)CC1,-1%,.,-15%[46.1 µM],1%,-10%,1%,0%,.
CCc1ccc2nc(N(CCCN(C)C)C(=O)c3ccc(S(=O)(=O)N(C)C4CCCCC4)cc3)sc2c1,-14%,.,?,1%,-17%,14%,?,.
CCOC(=O)CNC(=O)N1CCCC(C(=O)c2cccc(Cl)c2)C1 (centres undefined),5%,.,.,0%,4%,-5%,.,.

# Pulled one by one from the list above:
SMILES,NS1 inh,Cruzain inh Det,Marburg entry inh,SARS PLP yeast,StopGo reporter,RE007 growth inh,Lassa entry inh,Cruzain noTriton
CCOc1ccc(NCc2cccn2-c2nnc(N3CCC(C(=O)NCCOC)CC3)s2)cc1,.,-2.0%,?,.,-22%,.,.,?
O=C(COc1ccc(Cl)cc1)Nc1ccccc1N1CCOCC1,0%,-7.3%,2%,26%,.,.,.,3%

# The list goes on:
SMILES,NS1 inh,Cruzain inh Det,Marburg entry inh,SARS PLP yeast,StopGo reporter,RE007 growth inh,Lassa entry inh,Cruzain noTriton
Cc1ccccc1C(=O)NNC(=O)/C=C/c1ccccc1,.,.,-14%[46.1 µM],-1%,7%,2%,21%[46.1 µM],.
Cc1nn(CC(=O)NC(=O)NC2CCCC(C)C2C)c(=O)c(C#N)c1C (centres undefined),.,.,-20%[46.1 µM],.,?,-2%,-10%,.
CC1CN(c2cnn(C(C)C)c(=O)c2Cl)CC(C)O1 (centres undefined),3%,.,.,1%,-21%,-1%,.,.
O=C(c1cccnc1NCc1ccccc1)N1CCOCC1,-1%,4.7%,11%,3%,-15%,11%,-2%,-8%
Cc1nc(N2CCCCC2)c2sc(=S)n(C)c2n1,-15%,-4.0%,.,2%,-22%,16%,.,12%
Cc1ccc(NCc2ccc([N+](=O)[O-])s2)cc1,-15%,.,-21%,-5%,7%,?,5%,.
Cc1nc(=O)c(-c2ccccc2)c(C)n1-c1ccc(Br)cc1,-2%,.,.,1%,42%,43%,.,.
O=C(C1CCCN(S(=O)(=O)c2cnc[nH]2)C1)N1CCN(c2ccc(Cl)cc2)CC1 (centres undefined),-9%,-0.3%,3%,-3%,0%,-6%,.,?
O=C(N/C(=C\c1ccc([N+](=O)[O-])cc1)C(=O)N1CCCCC1)c1ccccc1,.,.,-9%[46.1 µM],-6%,46%[activator],-5%,-12%[46.1 µM],.
CCOC(=O)C1(Cc2ccccc2C)CCCN(S(C)(=O)=O)C1 (centres undefined),11%,.,.,1%,-20%,-17%,.,.
COc1cccc(N2CCN(C(=O)C3C4C=CC5(CN(Cc6ccccc6Cl)C(=O)C35)O4)CC2)c1 (centres undefined),16%,7.6%,1%&4%,3%,-7%,-16%,-5%,?
Cc1c(C(=O)N2CCN(c3ccccc3)CC2)sc2nc3n(c(=O)c12)CCC3,2%,-2.8%,.,-11%,-9%&-8%,3%,?,?
CC(=O)c1cccc(NC(=O)C2C3CCC(C3)C2C(=O)O)c1 (centres undefined),9%,.,.,10%,-17%,25%,.,.
COc1cccc(NC(=O)N(CCN(C)C)C(C)c2cccnc2)c1 (centres undefined),-1%,.,.,-2%,-3%,0%,.,.
O=C(N/N=C/c1ccccn1)c1ccco1,-15%,-1.1%,23%,-4%,0%,-16%,-17%,2%
CCCN1CCC(NC(=O)Nc2cccc3ccccc23)CC1,4%,.,?,0%,-11%,-3%,21%[46.1 µM],.
Cc1cc(Cl)cc(Cl)c1OCC(=O)NCc1ccco1,-33%,?,15%,-10%,-15%,0%,-3%,4%

# Screening results: PubChem BioAssay, National Center for Advancing Translational Sciences (NCATS)
